# TRPML1 inh – inhibitors of human TRPML1 channel; Q9GZU1; TRPML1-inducible cells, Ca2+ dye fluorescence, FDSS; hits give low values; inhibition of EC80 agonist-evoked calcium signal; activity change, negative = inhibition, % (test concentration not listed); actives 0.02% (n = 390,000); AID 624415; in the data active means activity change below about -50%; inconclusive means about -30% to -50%; inactive means above about -30%;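 further: stimulus is agonist 54-4 at its EC80 concentration; on the % scale 0 is the no-effect control and ±100 the full control effect; compound concentration not given in the record; the text of the record puts the active cut at -80%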
# Target sequence (Q9GZU1 whole entry, looked up): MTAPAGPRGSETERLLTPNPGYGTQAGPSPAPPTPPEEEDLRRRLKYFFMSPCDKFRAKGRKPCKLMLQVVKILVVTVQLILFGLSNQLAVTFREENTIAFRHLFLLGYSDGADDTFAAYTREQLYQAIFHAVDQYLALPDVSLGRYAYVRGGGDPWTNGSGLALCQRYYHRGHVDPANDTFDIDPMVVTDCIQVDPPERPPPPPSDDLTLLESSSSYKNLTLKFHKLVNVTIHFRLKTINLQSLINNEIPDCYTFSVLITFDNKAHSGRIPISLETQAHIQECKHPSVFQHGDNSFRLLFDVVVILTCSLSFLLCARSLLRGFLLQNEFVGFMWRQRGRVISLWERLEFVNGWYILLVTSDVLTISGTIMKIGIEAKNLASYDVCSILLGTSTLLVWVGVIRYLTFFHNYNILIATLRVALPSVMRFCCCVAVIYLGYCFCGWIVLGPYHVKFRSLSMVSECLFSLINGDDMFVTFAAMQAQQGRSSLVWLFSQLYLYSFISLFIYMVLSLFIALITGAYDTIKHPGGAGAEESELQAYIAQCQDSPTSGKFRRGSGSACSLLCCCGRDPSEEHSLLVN
#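 TRPML1-DL cells, Tet-induced overnight (~16 h, 37 °C) at 1,500 cells/well, were loaded with Ca8 no-wash dye plus quencher for 45-90 min at room temperature. Compounds were pinned during FDSS kinetic reading; agonist 54-4 at EC80 (4 uM final) then added.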
# D2 potentiator – positive allosteric modulators of human D2 dopamine receptor; AID 624464; P14416; actives 0.23% (n = 360,000); potentiation, % (test concentration not listed); DiscoveRx D2 beta-arrestin cells, luminescence, 90 min; 100% = 57 uM dopamine signal; active = potentiation of 50% or more; inconclusive = 30% to 50%; inactive = 30% or less;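 further: compound concentration not given in the record; tested on top of an EC20 dose of dopamine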
# Target sequence (P14416 whole entry, looked up): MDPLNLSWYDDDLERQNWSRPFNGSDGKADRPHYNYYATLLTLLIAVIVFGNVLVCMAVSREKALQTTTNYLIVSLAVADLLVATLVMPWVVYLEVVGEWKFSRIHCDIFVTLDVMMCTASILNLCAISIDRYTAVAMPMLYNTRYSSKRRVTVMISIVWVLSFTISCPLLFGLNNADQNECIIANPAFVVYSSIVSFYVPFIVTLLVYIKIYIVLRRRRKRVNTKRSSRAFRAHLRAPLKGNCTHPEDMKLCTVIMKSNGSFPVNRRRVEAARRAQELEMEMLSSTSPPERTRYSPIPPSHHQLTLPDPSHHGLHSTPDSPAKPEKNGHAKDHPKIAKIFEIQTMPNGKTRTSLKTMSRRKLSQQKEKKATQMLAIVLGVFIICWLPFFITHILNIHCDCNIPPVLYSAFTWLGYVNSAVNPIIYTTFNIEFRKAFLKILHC
#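 D2 cells co-treated with compound plus 50 nM dopamine (EC20) for 90 min at 37 deg C to detect potentiation. Beta-arrestin recruitment was read as enzyme-fragment luminescence after 1 h at ambient temperature. Full response was set by 57 uM dopamine.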
# D2 agonist – activates the human D2 dopamine receptor | actives 0.084% (n = 360,000) | P14416 | activation, % (concentration not given with the values) | DiscoveRx PathHunter D2 beta-arrestin, luminescence, 90 min; 100% = 57 uM dopamine signal; in the data active = activation above about 40%; inconclusive = about 15% to 40%; inactive = below about 15%; further: compound concentration not given in the record; the text of the record calls up to 30% inactive
#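 DiscoveRx PathHunter D2 beta-arrestin cells (2,100/well) attached overnight, then compound-stimulated 90 min at 37 C in HBSS/10 mM HEPES/0.1% Tween-20 buffer; beta-galactosidase complementation read by luminescence after 1 h at ambient temperature. Dopamine 57 uM final (EC100) as control.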
# TRPML1 agonist – agonists of human TRPML1 channel; Q9GZU1; TRPML1-expressing cells, Ca2+ dye fluorescence, FDSS; host cell line not named in the record; reference of the full effect not given here; activation, % (test concentration not listed); actives 0.12% (n = 410,000); AID 624414; in the data active = activation above about 50%; inconclusive = about 30% to 50%; inactive = below about 30%; further: 0% is about no effect; the text of the record puts the active cut at 80%
#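 TRPML1-DL cells, Tet-induced overnight (~16 h, 37 degrees C), loaded 45-90 min at room temperature with Ca8 no-wash calcium dye plus quencher. FDSS fluorescence: 10 s baseline, compound pin-transfer, 110 s agonist read, then EC80 54-4 (4uM final) and 110 s antagonist read.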
# PINK1 modulator – PINK1 expression modulation. PINK1 immunofluorescence, high-content cytometry, 24 h. Potency, µM (series often up to 76.6 µM), without a hit: top-dose activation (PINK1 increase), most hits filed as activators. actives 0.2% (n = 410,000). AID 624263; active = well fitted activation curve with a large enough effect; inconclusive = small, poorly fitted or top-dose-only effect; inactive = flat fitted curve, though single readings scatter; cell line not stated here;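 further: potency means the concentration at half of the fitted maximal effect; % of control where 0% means no effect; nearly all actives have a fitted effect of over 65% in size; a mitochondrial uncoupler was the plate control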
#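 A stable cell line was treated with compounds at 5 concentrations for 24 hours, with CCCP as control. PINK1 levels and mitochondrial localization were measured by immunofluorescence with mitochondrial, cell and nuclear markers after fixation, read by laser-scanning cytometry.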
# Six1-Eya2 blk – inhibitors of human Six1/Eya2 interaction; Q15475+O00167; AlphaScreen GST-Six1/His-Eya2 binding, biochemical; hits give low values; control for the full effect not named in the record; activity change, % (concentration not given with the values); actives 0.56% (n = 360,000); in the data active = activity change below about -65%; inconclusive = about -30% to -65%; inactive = above about -30%; further: on the % scale 0 is the no-effect control and ±100 the full control effect
#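 AlphaScreen with GST-Six1 and His-Eya2 (5X mix: 250 nM and 500 nM), glutathione donor and nickel acceptor beads; buffer 50 mM Tris pH 8.0, 300 mM NaCl, 1 mM TCEP; 1 h at 37 C in the dark.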
# * marks the source's active call; other numbers are inactive results; u = inconclusive; x = not tested or not shown; & = joins results of further samples; [ ] = dose if it differs, or a comment.
SMILES,TRPML1 inh,D2 potentiator,D2 agonist,TRPML1 agonist,PINK1 modulator,Six1-Eya2 blk
Cc1cc(C)nc(NS(=O)(=O)c2ccc(NC(=O)CCC3COc4ccccc4O3)cc2)n1 (stereo not given),12.8,-1.0,-1.9,1.0,0.7%,u
O=[N+]([O-])c1cc([N+](=O)[O-])c(Oc2cccc3ccccc23)cc1NN1CCCCC1,10.5,1.5,0.2,0.0,-0.1%,-11.2
S=C(NCc1ccc2c(c1)OCO2)NC1CC1,-5.1,-3.1,-1.6,-0.2,-0.1%,15.6
COc1ccc(N(C(C)=O)c2nc(C)cc(C)c2C#N)c(OC)c1,21.7,-2.8,1.9,0.5,-0.2%,-7.0
CCOC(=O)N1CCC(N2C(=O)c3ccccc3C2Nc2ccc3c(c2)OCCO3)CC1 (stereo not given),18.3,-2.2,-4.5,1.3,-2.0%,-6.3
CCCn1nc(C(=O)N2CCc3ccccc32)c2ccccc2c1=O,-7.7,-1.3,0.9,0.5,2.1%,-5.0
CC1=C(C(=O)OC(C)C)C(c2cn(-c3ccccc3)nc2-c2cccs2)NC(=O)N1 (stereo not given),0.7,2.1,-0.1,1.1,-0.6%,1.4
Cc1cccnc1NC(=O)CSc1ccc2c(c1)OCCO2,3.6,-1.5,-1.3,-0.2,0.1%,5.8
CCOc1ccc2nc(N3CCCC(C(=O)Nc4ccccc4CC)C3)sc2c1 (stereo not given),18.1,x,x,-0.2,-1.8%,x
CC(=O)c1ccc(N2CCN(C(=O)Nc3cccc(F)c3)CC2)cc1,-22.3&23.2,-5.8,3.0,0.3&1.3,0.1%&0.9%,7.1

# Structural class, the entries above containing four or more nitrogen atoms (3)
SMILES,TRPML1 inh,D2 potentiator,D2 agonist,TRPML1 agonist,PINK1 modulator,Six1-Eya2 blk
Cc1cc(C)nc(NS(=O)(=O)c2ccc(NC(=O)CCC3COc4ccccc4O3)cc2)n1 (stereo not given),12.8,-1.0,-1.9,1.0,0.7%,u
O=[N+]([O-])c1cc([N+](=O)[O-])c(Oc2cccc3ccccc23)cc1NN1CCCCC1,10.5,1.5,0.2,0.0,-0.1%,-11.2
CC1=C(C(=O)OC(C)C)C(c2cn(-c3ccccc3)nc2-c2cccs2)NC(=O)N1 (stereo not given),0.7,2.1,-0.1,1.1,-0.6%,1.4

# Continued.
SMILES,TRPML1 inh,D2 potentiator,D2 agonist,TRPML1 agonist,PINK1 modulator,Six1-Eya2 blk
CCCCNc1c(-c2cccc(-c3cc(C(C)=O)cs3)c2)nc2cc(C)ccn12,39.4,-10.4,u,1.5,u,-20.1
O=C(Cn1c(=O)oc2ccccc21)Nc1ccccc1Cl,-15.9,0.9,-1.8,0.1,0.3%,-5.5
Cc1ccccc1CN1C(=O)c2ccccc2Sc2ccc(C(=O)NC3CCCCC3)cc21,57.7,x,x,1.7,-0.8%,x
COc1ccc(-c2cc(C)no2)cc1S(=O)(=O)NCCCN(C)Cc1ccccc1,0.0,-32.5,-2.4,-0.7,-1.6%,-5.1
CCOC(=O)c1ccccc1NC(=O)Cn1c(=O)n(CCCC(=O)NCc2ccc3c(c2)OCO3)c(=O)c2ccccc21,-4.4,x,x,-0.8,1.9%,x
CC(C)Oc1ccc2ccccc2c1CNC[C@H]1O[C@@H](n2ccc(=O)[nH]c2=O)[C@H](O)[C@@H]1O,-5.6,-4.6,-5.4,-0.7,0.3%,4.1
COc1cc(NC(=O)Cc2c(C(=O)O)[nH]c3ccccc23)cc(OC)c1OC,-4.0,-2.1,-0.2,0.1,x,0.9
Cc1ccc(-n2c(SCC(=O)NCCN3C(=O)CSC3=O)nnc2-c2cccc(C)c2)cc1,22.9,-30.3,-1.4,2.2,-1.2%,2.6
Cc1ccccc1C(=O)n1nc(-c2cccnc2)nc1NCc1ccccc1,-17.4,x,x,1.4,6.7%,x
COc1nc(N(c2ccccc2)c2ccccc2)nc(-n2ccnc2)n1,0.0,-8.5,-2.1,6.3,-1.2%,-4.9
Cc1cccc(NC(=O)CSc2nnnn2-c2ccc3c(c2)OCCO3)n1,8.6,-6.0,1.3,0.0,0.6%,-1.5
CC1(C)OC2OC3C(CNCCO)OC(c4ccccc4)OC3C2O1 (stereo not given),-4.1,0.5,-2.5,-0.3,-2.0%,0.4
Cc1cc(Br)ccc1NC(=O)c1cc2c(s1)-c1ccccc1SC2,48.1,x,x,2.2,-0.6%,x
CCCCOc1ccc(/C=C/C(=O)OCC(=O)N2CC(=O)Nc3ccccc32)cc1OCC,44.9,-1.5,7.8,1.8,9.7%,-1.4
CC(C)C(C(=O)Nc1ccc(S(=O)(=O)N2CCOCC2)cc1)N1C(=O)c2ccccc2C1=O (stereo not given),6.1,-5.8,-0.9,1.3,-0.1%[38.3 µM],-1.1
CN(C)CCCNC(=S)N1CCn2c(nc3ccccc32)C1,12.8,-4.2,-4.3,0.2,0.2%,14.5
O=C(NCc1ccc2c(c1)OCO2)C(=O)NCC1OCCN1S(=O)(=O)c1ccccc1 (stereo not given),6.4,3.8,4.7,-0.5,1.6%,-5.0
Cc1[nH]nc(-c2ccc(O)c(C)c2O)c1-c1cnn(-c2ccccc2)c1,-8.3,-6.5,3.1,0.3,0.0%[38.3 µM],-21.2
CCOc1cc(-c2nc(C)c(C(C)=O)n2O)ccc1OCC(=O)Nc1ccccc1,-6.6,-0.1,-5.8,-0.4,-0.5%,-7.0
CC(C)c1ccc(NC2CCCN(C(=O)c3cccnc3)C2)cc1 (stereo not given),30.8,-1.5,-0.7,-0.4,-0.6%,-1.1
COc1cc(SC)ccc1C(=O)Nc1ccc(C)cc1,4.7,-14.2,-6.1,-1.5,-0.8%,5.8
Nc1nonc1C(=O)NCCN=Cc1cc(Cc2ccccc2)cc(Br)c1O,10.6,-13.3,-3.5,0.8,5.1%,-5.6
CN1CCN(S(=O)(=O)c2ccc(NC(=O)Nc3cccc(Cl)c3)cc2)CC1,-1.6,1.8,-1.1,0.7,-2.6%,-7.3
Cc1nn(C)c2c1c(C(F)(F)F)cc(=O)n2CC(=O)N1CCCCC1,-25.6,x,x,0.8,0.0%,x
O=C(CSc1nnnn1-c1ccccc1)NC(=O)Cc1ccccc1,4.5,-0.2,0.0,0.3,-1.8%,-0.9
COC(=O)c1ccc(CNC(=O)CCc2c[nH]c3ccccc23)cc1,-8.4,-9.8,-3.6,-0.4,-0.5%,7.3
CCN(C(=O)CSc1n[nH]c(N)n1)C1CCCCC1,17.4,-5.6,3.9,-0.1,0.0%,-9.0
Cc1ccc(OCc2ccccc2Br)c([N+](=O)[O-])n1,-0.1,1.1,2.5,-0.1,-1.2%,-6.0
Cc1ccc(C(=O)N2CCN(C3c4cccc5cccc(c45)C3NS(=O)(=O)c3ccccc3)CC2)cc1 (stereo not given),-9.1,-28.2,-7.6,-1.2,-2.2%,-11.8
CCOC(=O)c1ccccc1NC(=O)c1ccc2c(=O)n3c(nc2c1)CCCCC3,15.8,-5.8,-1.9,0.3,2.7%,-0.8
CCOC(=O)c1c(S(=O)(=O)NCC(=O)NCc2ccccc2)c(C)n(C)c1C,27.2&-27.7,-7.4,-4.3,-0.6&1.2,-0.5%&0.2%,-5.5
CN(C)CCCNC(=O)C[C@H]1C[C@H](C(=O)N2CCOCC2)[C@@]2(C)c3[nH]c4cc(-c5ccco5)ccc4c3CCN2C1=O,u,1.7,-2.3,1.1,2.7%,18.5
CCOC(=O)C(CC)/C(C)=N/NC(=O)c1ccccc1[N+](=O)[O-] (stereo not given),14.6,-22.0,-0.2,0.2,2.0%[38.3 µM],3.2
COc1ccc(Nc2nc(C)cc(=O)[nH]2)c(OC)c1,12.5,-11.3,-0.5,0.7,x,-2.0
O=C(NCCN1CCN(c2ccccc2)CC1)Nc1cccc(Br)c1,-6.7&1.7,-8.1,-2.3,-0.1&0.1,4.5%&-1.1%,-17.7
COc1ccccc1-c1cc(C(F)(F)F)nc(N2CCN(c3ccc(F)cc3)CC2)n1,-17.1,2.1,-2.1,-0.1,11.3%,3.4
CCOC(=O)c1cc(-c2ccccc2)n(CCCC(=O)Nc2ccc(CC)cc2)c1C,2.1,x,x,2.8,-0.1%,x
O=C(O)CNC(=O)c1ccccc1Br,-1.3,-0.9,0.8,0.2,1.1%,17.0
Cc1nn(C(C)C(=O)N2CCCCC2)c(=O)c2c1sc1ccccc12 (stereo not given),-2.7,7.9,-2.6,-0.3,0.8%,0.0
CCc1nnc(NC(=O)CSc2nnc(CNc3cccc(C)c3)n2-c2ccccc2)s1,-8.0,-14.9,-3.0,0.3,0.5%,-1.7
O=C(CCCN1C(=O)/C(=C\c2cccs2)SC1=S)NNC(=O)c1cccnc1,22.2,-3.1,4.1,1.4,5.1%,-10.7
Cc1cccc(Oc2ccc(C(=O)NC3CCSC3=O)cn2)c1C (stereo not given),32.0,-16.2,-1.9,0.9,3.3%,-7.5
NC(=O)C1(Nc2ccc(-c3ccccc3)cc2)CCCC1,-13.3,-3.9,-2.9,-0.2,5.8%,-11.9
CC(=O)c1sc(NC(=O)CS(=O)(=O)c2ccccc2)nc1C,-11.5,-19.4,-6.4,2.2,-0.4%,0.8
COc1cc(/C=C/C(=O)NCCc2ccc(S(N)(=O)=O)cc2)ccc1OCC#N,-7.7,4.9,2.2,0.3,-0.8%,-0.8
Cc1nc2nc(NCc3ccc(Cl)cc3)[nH]n2c(=O)c1Cc1ccccc1,14.9,x,x,-0.6,-0.6%,x
COc1ccc(N(CC(=O)NCCC(C)C)C(=O)c2snc(C(=O)NC3CCCCC3)c2N)c(OC)c1,-18.2,-5.7,0.4,1.7,0.6%,1.5
COc1ccc(Br)c(C(=O)OCC(=O)NC2CC2)c1,-3.2,-9.2,-5.4,-0.7,2.6%,-5.7
COc1ccc(NC(=S)NCCc2c[nH]c3ccccc23)c(OC)c1,4.5,-7.0,2.1,1.0,-1.3%,-4.8
Cc1ccc(CNC(=O)C(=O)Nc2nccs2)cc1,-4.2,0.3,-2.1,-1.3,0.8%,-14.0
# (listing goes on)
SMILES,TRPML1 inh,D2 potentiator,D2 agonist,TRPML1 agonist,PINK1 modulator,Six1-Eya2 blk
CCN(CC)CCOC(=O)c1ccc(NC(=O)CCNC(=O)Cn2ccc3ccccc3c2=O)cc1,9.0,-33.1,-4.4,-0.5,-2.0%,1.2
CCOc1ccc(CN2CCNC(=O)C2CC(=O)NCCN2CCOC2=O)cc1 (stereo not given),6.4,-12.0,2.9,0.9,2.3%,10.6
Cc1ccc(C2(CC(=O)O)CCOC(C)(C)C2)cc1 (stereo not given),7.0,0.6,-2.5,-0.5,1.3%,4.7
COc1cc(C(=O)Nc2ccc(C(F)(F)F)cc2)ccc1OCC(=O)N1CCOCC1,16.2,-52.2,1.4,0.1,-1.0%,-5.3
Cc1ccc(NC(=O)CCC2CC(C)(C)OC2=O)cc1 (stereo not given),12.9,-9.5,-0.8,6.3,-3.0%,-3.0
Cc1cccc(CCNS(=O)(=O)c2ccc3c(c2)NC(=O)CO3)c1,-4.9,2.5,-3.1,3.3,-1.6%,1.9
O=S(=O)(NCc1cccnc1)c1ccc(Cl)nc1,-11.4,-7.5,-2.2,0.1,-2.9%,-1.2

# From PubChem BioAssay
